Assay outcomes as filed in PubChem BioAssay.
Mtb growth: Mycobacterium tuberculosis H37Rv growth inhibition, cell based, confirmatory dose response (AID 1949); M. tuberculosis H37Rv growth inhibition; inhibition, % at 10 µg/mL, or IC50 in µg/mL where a hit was titrated; most inactive calls were filed without a number and no value below 0 was filed; 100,000 tested, 1.6% active;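 active = confirmed in a dose series; inconclusive = about 50% or more but not retested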;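 also: bacteria grown 7 days with compound before Alamar blue readout; 0% = untreated bacteria and 100% = reference antibiotic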
* marks the source's active call; other numbers are inactive results; i = inactive; ? = inconclusive.

structure	Mtb growth
CCOc1ccc(CC(=O)Nc2ccc(C(=O)OC)cc2)cc1OCC	0%
Cc1cccc(-n2c(/C=C/c3ccco3)nc3ccc(I)cc3c2=O)c1	32%
O=C(NC(=S)Nc1ccc2oc(-c3ccccc3F)nc2c1)c1cccc2ccccc12	i
Cc1c(C(N)=O)sc(NC(=O)c2cccnc2)c1C#N	i
COC(=O)c1ccc(COc2ccc3c4c(c(=O)oc3c2)CCCC4)cc1	1%
CC(C)C(=O)N1CCN(c2ccccc2NC(=S)NC(=O)c2ccccc2I)CC1	i
CCN(CC)Cc1cc(C(C)(C)C)oc1C(=O)O	i
CCc1cccc(C)c1NC(=O)C(C)C	i
Cc1ccc(NC(=S)N2CCN(c3ncccn3)CC2)c(C)c1	i
CCOC(=O)COc1ccc2c(=O)c(Oc3cnn(-c4ccccc4)c3)c(C)oc2c1	0.61µg/mL*
C=CCn1c(SCC(=O)Nc2cc(C)cc(C)c2)nc2sc(C)cc2c1=O	1%
Cc1ccc(C)c(C(=O)NCC2CCCO2)c1 (stereo not drawn)	1%
CCOc1ccc(NC(=O)c2ccccc2C)cc1	6%
O=C(c1ccco1)N1CCN(S(=O)(=O)c2ccc(Cl)cc2)CC1	i
c1ccc(-c2noc(CSc3nnc(-c4ccco4)n3-c3ccccc3)n2)cc1	5%
O=C(Nc1cccc(F)c1)c1ccc(Cl)c(F)c1F	i
O=C(Nc1ccc(I)cc1)c1cccc(-c2cc3ccccc3oc2=O)c1	i
CC(CC(=O)Nc1nnc(Cc2ccccc2)s1)c1ccccc1 (stereo not drawn)	i
O=C(N(c1ccccc1)c1ccccc1)n1ccnc1	7%
CCOC(=O)C1=C(c2ccccc2)N=C2SCC(=O)N2C1c1ccc(OCC)c(OCC)c1 (stereo not drawn)	i

Random excerpt: 5 entries already listed, in no set order.
structure	Mtb growth
O=C(c1ccco1)N1CCN(S(=O)(=O)c2ccc(Cl)cc2)CC1	i
CCN(CC)Cc1cc(C(C)(C)C)oc1C(=O)O	i
Cc1c(C(N)=O)sc(NC(=O)c2cccnc2)c1C#N	i
Cc1ccc(C)c(C(=O)NCC2CCCO2)c1 (stereo not drawn)	1%
COC(=O)c1ccc(COc2ccc3c4c(c(=O)oc3c2)CCCC4)cc1	1%

Following part:
structure	Mtb growth
Cc1cc(NS(=O)(=O)c2ccc(Nc3nc(-c4ccc(F)c(C)c4)cs3)cc2)no1	i
COc1ccc([N+](=O)[O-])cc1NS(=O)(=O)c1ccc(OC)c(OC)c1	i
COC(=O)c1cccc(NC(=O)CN(c2cc(OC)ccc2OC)S(=O)(=O)c2ccc(C)cc2)c1C	i
CC(C)OC(=O)c1c(NC(=O)c2cnccn2)sc2c1CCCCC2	3%
COC(=O)c1ccc(COC(=O)c2cc(Br)ccc2NC(C)=O)cc1	i
Cc1ccc(-c2nnc(SCC(=O)Nc3ccc4c(c3)OCO4)o2)cc1	i
CC(=O)OC(C(=O)Nc1nccs1)c1ccccc1 (stereo not drawn)	i
CSc1ccccc1NC(=O)c1nc2ncccn2n1	i
NC(=O)c1ccccc1NC(=O)CC(c1ccccc1)c1ccccc1	i
CCOc1ccccc1OC(=O)COc1ccc(C)cc1C	15%
O=C(OC1CCCCC1)c1nsc(Cl)c1Cl	i
Cc1ccc(NC(=S)NC(=O)c2ccc(C)c(Br)c2)c(C)c1	0%
CCCCC12CN3CC(C)(CN(C1)C3c1ccc3c(c1)OCO3)C2=O (stereo not drawn)	i
C=CCn1nnnc1SCC(=O)Nc1cccc(OC)c1	4%
COc1ccc(CCNC(=O)c2ccc(C(=O)NCCc3ccc(OC)c(OC)c3)cc2)cc1OC	i
COc1ccc(C)cc1S(=O)(=O)Nc1ccccc1	i
Cc1onc(-c2c(Cl)cccc2Cl)c1C(=O)N1CCCc2ccccc21	2%
CCn1c(SCC(=O)Nc2c(Cl)cc(Cl)cc2Cl)nnc1-c1ccccc1Cl	i
COc1ccc(C(=S)NCC2CCCO2)cc1 (stereo not drawn)	i
COc1ccc(NC(=O)NNS(=O)(=O)c2ccc(Br)cc2)cc1	i
O=C(O)CCC(=O)NCc1ccc2c(c1)OCO2	i
Cc1ccc(C(C)C)c(OCC(=O)Nc2ccc(Br)c(C)n2)c1	i
Cc1cc(NC(=O)c2sc3nc(C)c(C)c(C)c3c2N)no1	i
Cc1ccc(OCC(=O)N2CCN(C(=O)CC(C)C)CC2)cc1	i
COc1ccc(-n2c(-c3ccncc3)n[nH]c2=S)c(OC)c1	2%
Cc1ccc(S(=O)(=O)c2nc(S(C)(=O)=O)sc2N2CCN(Cc3ccccc3)CC2)cc1	i
CC(C)c1ccc(N2CC(C(=O)Nc3ccccc3F)CC2=O)cc1 (stereo not drawn)	i
O=C(O)c1ccccc1SC1CC(=O)N(c2ccccc2OC(F)F)C1=O (stereo not drawn)	i
CCc1ccccc1NC(=O)CSc1nc2c(c(=O)n(C)c(=O)n2C)n1C	i
CCCCSc1nc(C)c(C(=O)Nc2ccccc2)s1	11%
COC(=O)c1c(N)sc(C(=O)Nc2cccc(Cl)c2)c1C	i
CCOc1ccc(-c2nn(-c3ccccc3)cc2C2C(C(=O)OC)=C(C)NC(C)=C2C(=O)OC)cc1[N+](=O)[O-]	?
O=C(CSc1ncn(-c2ccccc2)n1)Nc1nncs1	i
COc1ccc(CN(CCC(c2ccccc2)c2ccco2)C(C)=O)cc1 (stereo not drawn)	7%
COC(=O)c1ccccc1NC(=O)CN(c1cc(C(F)(F)F)ccc1Cl)S(C)(=O)=O	1%
Cc1ccccc1-c1noc(-c2ccc(F)cc2)n1	1%
O=C(NCCc1cccc(Cl)c1)C1CCCO1 (stereo not drawn)	i
O=C(Oc1ccc(C(=S)N2CCCCC2)cc1)c1ccccc1F	i
N#Cc1sc2nc(-c3ccc4c(c3)OCO4)ccc2c1N	i
c1ccc2c(NCc3ccncc3)cccc2c1	15%

In a second layout: results already given
CCOc1ccc(-c2nn(-c3ccccc3)cc2C2C(C(=O)OC)=C(C)NC(C)=C2C(=O)OC)cc1[N+](=O)[O-]
- Mtb growth: ?
O=C(CSc1ncn(-c2ccccc2)n1)Nc1nncs1
- Mtb growth: i

New compounds follow.
structure	Mtb growth
COC(=O)CCC(=O)NC(=S)Nc1cc(Cl)ccc1Cl	i
Clc1ccc(OCCOCCN2CCOCC2)cc1Cl	i
COc1ccccc1NC(=O)CN(c1ccc(F)cc1)S(=O)(=O)c1ccc(C)cc1	i
O=C1CC(N2CCC(c3nc4ccccc4s3)CC2)C(=O)N1c1ccc(Br)cc1 (stereo not drawn)	i
COc1cccc(NC(=S)Nc2c(C)cccc2C)c1	i
COc1cc(Cl)c(C)cc1NC(=O)c1ccco1	10%
Cc1ccnc(NC(=O)c2ccc(OC(C)C)cc2)c1	i
CCC(CC)c1nnc(NC(=O)COc2ccccc2Br)s1	i
Cc1ccccc1C(=O)Nc1ccc(S(=O)(=O)NC(C)(C)C)cc1	i
COc1ccc(NC(=O)CN(c2ccc(Oc3ccccc3)cc2)S(C)(=O)=O)cc1Cl	3%
Clc1ccc(CN2CCC(N3CCOCC3)CC2)cc1	i
Cc1cc(C(F)(F)F)nn1CC(=O)N1CCCCCC1	i
Cc1cc(=O)oc2cc(OC(C(=O)c3ccccc3)c3ccccc3)ccc12 (stereo not drawn)	i
CCOC(=O)C1CCN(C(=O)c2ccccc2N(C)S(C)(=O)=O)CC1	i
COc1ccc(OC)c(NC2=C(Cl)C(=O)N(c3ccc(Br)cc3)C2=O)c1	i
CC(C)CC(NC(=O)c1ccc(Cl)cc1Cl)c1nnc(SCC(=O)Nc2ccc(Br)cc2)n1C (stereo not drawn)	3%
C/C=C(\C)c1nnc(NC(=O)C(C)C)s1	i
Cc1ccc(CN(Cc2ccco2)C(=S)Nc2ccccc2)cc1	i
CN(CCO)c1ccc([N+](=O)[O-])cc1C(=O)O	i
Cc1ccc(N2C(=O)C(NC(=O)C(C)(C)C)(C(F)(F)F)C3=C2CC(C)(C)CC3=O)cc1C (stereo not drawn)	1%
Cc1ccc(N(CC(=O)Nc2ccc(F)cc2)S(=O)(=O)N2CCCC2)cc1	0%
CCOC(=O)c1sc2ncn(Cc3ccc(C)cc3)c(=O)c2c1C	i
CCOc1ccc(CN2CCCC(C(=O)N3CCCCCC3)C2)cc1 (stereo not drawn)	i
CC(Oc1ccc(Br)cc1)c1nc(-c2cccnc2)no1 (stereo not drawn)	i
COc1ccc(NC(=S)N2CCN(CCO)CC2)c(OC)c1	i
O=C(Nc1ccc(N2CCOCC2)c(Cl)c1)c1c(F)c(F)c(F)c(F)c1F	?
Cc1cc(C)c(NC(=O)CN(c2ccc(Br)cc2)S(C)(=O)=O)c(C)c1	i
CCOC(=O)c1cccc(NC(=S)NCc2ccc(C)cc2)c1	0%
CN1CCC2=C(C1)C(=O)NC1(CCCCC1)N2	i
COc1ccc(C(=O)Oc2ccc(C(=S)N3CCCC3)cc2)cc1OC	i
CCn1c(=O)c2c3c(sc2n2c(SCc4ccc(OC(C)C)cc4)nnc12)CCCC3	i
COc1ccc2[nH]c(C)c(CCN3CCC(=O)C(C)C3C)c2c1 (stereo not drawn)	0%
NC(=O)CCc1c[nH]c2ccccc12	i
CC(C)(C)c1cc(C(=O)N/N=C/c2cccc(O)c2)n[nH]1	i
Cc1ccccc1CNC(=O)C(=O)Nc1cccc(Cl)c1Cl	3%
COC(=O)Cn1cc(/C=C/[N+](=O)[O-])c2ccccc21	33%
Cc1nn(Cc2c(F)c(F)c(F)c(F)c2F)c(C)c1NC(=S)NCc1ccc(Cl)cc1	4%
CC1CCCN(CCCOc2ccccc2F)C1 (stereo not drawn)	i
O=C(COc1ccc(Br)cc1Cl)NC(=S)N1CCOCC1	i
CC(C)Oc1ccccc1-c1nc(SCc2ccc(F)cc2)n[nH]1	39%
CCOc1ccccc1N(CC(=O)Nc1ccc(F)cc1F)S(=O)(=O)c1ccccc1	i
COC(=O)c1c(-c2ccc(F)cc2)csc1NC(=O)c1ccc(C)c(C)c1	i
C=COCCSc1nnnn1-c1ccc2c(c1)OCO2	i
O=S(=O)(Nc1c(F)cccc1F)c1ccccc1	i
CCc1ccccc1N(CC(=O)Nc1cccc([N+](=O)[O-])c1)S(=O)(=O)c1ccccc1	i
C=CCn1c(SCC(=O)NCC2CCCO2)nc2scc(-c3ccc(C)o3)c2c1=O (stereo not drawn)	i
COc1ccccc1N1CCN(C(=O)CS(=O)(=O)c2ccccc2)CC1	i
Clc1ccc(Oc2ncnc3c2ncn3Cc2c(Cl)cccc2Cl)cc1	i
Cc1cccc(NC(=O)c2ccc(N3CCOCC3)c([N+](=O)[O-])c2)n1	i
Cc1ccc(C(N)=O)cc1-n1c(C)ccc1C	i
CCCCOc1ccc(C(=O)Nc2cc([N+](=O)[O-])ccc2OC)cc1OC	i
O=C(CSc1nnc(-c2cccnc2)n1-c1ccc(Br)cc1)c1ccc(F)cc1	i
CCn1c(CC(=O)Nc2cccc(Cl)c2Cl)nnc1SCCOc1ccc(OC)cc1	i
O=C(CN(c1cccc(Cl)c1)S(=O)(=O)c1ccc(Cl)cc1)Nc1cccnc1	i
O=c1oc2cc(OCc3ccc(Cl)cc3Cl)ccc2c2c1CCC2	i
Cc1nc(SC(C(=O)c2ccccc2)c2ccccc2)nc2ccccc12 (stereo not drawn)	i
COC(=O)c1cc(NS(=O)(=O)c2ccc(OC)c(OC)c2)ccc1Cl	i
O=C1CC(N2CCC(c3nc4ccccc4[nH]3)CC2)C(=O)N1c1ccc(F)c(Cl)c1 (stereo not drawn)	i
CC(C)n1c(NCc2ccc(N(C)C)cc2)nc2ccccc21	1%
Cc1ccc(C(=O)N(C)C2CCCCC2)cc1Br	i

(listing goes on)
structure	Mtb growth
CC(C)c1ccc(CC(NC(=O)c2ccccc2)C(=O)NCC(=O)O)cc1 (stereo not drawn)	i
C=CCOc1ccc(CNc2ccc3[nH]c(=O)[nH]c3c2)cc1	8%
Cc1ccc(-c2nc3ccccc3c(=O)n2N)cc1	i
Cc1ccc2c(N)c(C(=O)Nc3ccccc3C(F)(F)F)sc2n1	i
Cc1cc(C)nc(N2C(=O)CC(Cc3ccccc3)C2=O)n1 (stereo not drawn)	i
O=C(Cn1cc([N+](=O)[O-])cn1)n1cc(I)cn1	i
CCc1ccccc1NC(=O)c1cccc(OCc2ccccc2)c1	20%
COC(=O)C1=CN(C(C)C)C=C(C(=O)OC)C1c1cccc(O)c1	2%
O=C(COc1ccccc1Cl)Nc1ccc2c(c1)C(=O)N(CC1CCCO1)C2=O (stereo not drawn)	i
Cc1ccc(S(=O)(=O)N(CC(=O)Nc2cc(C)cc(C)c2)c2ccc(F)cc2)cc1	i
CCOc1ccc(C(=O)NCCO)cc1OCC	2%
CCc1c(C)sc(NC(C)=O)c1C(=O)NCc1ccccc1	i
COC(=O)c1ccc(COc2ccc3c(c2)oc(=O)c2cc(OC)ccc23)cc1	i
CC1CC(C)CN(c2oc(-c3ccco3)nc2C#N)C1 (stereo not drawn)	i
COc1cc(OC)c(C(c2c[nH]c3ccccc23)c2c[nH]c3ccccc23)c(OC)c1	6%
O=S(=O)(c1ccc(COc2ccc(I)cc2)cc1)N1CCOCC1	i
COc1ccc(C(=O)Oc2cccc([N+](=O)[O-])c2)cc1Br	i

Only part of the results is shown; rates above refer to the full screens.
